Mtb bLac sens: beta-lactam sensitization of Mtb H37Rv | AID 434955 | M. tuberculosis H37Rv growth with meropenem, percent inhibition; hits of this screen are not shown here | hit rate 0.27% among 330,000 | inhibition, % at 25 µM;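 active = about 74% or more and at least 40 points above the plate without the antibiotic, then above 30% in a dose series; inconclusive = first-round hits that could not be retested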;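 also: growth measured after seven days incubation then overnight dye step; 0% = bacteria only wells and 100% = bacteria with antibiotic; twin plates without the antibiotic show which effects depend on it; some results filed as inactive read as strong as hits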
An asterisk follows results filed as active; ? = inconclusive.

SMILES	Mtb bLac sens
CCCCCCCNC(=O)C1(CC2CC(c3cccc(Br)c3)=NO2)CCN(C(=O)C2(C)CC2)CC1 (stereo not given)	91.6
C[C@]12CCC3C(CC[C@H]4C[C@@H](O)CC[C@]34C)C1C[C@@H](O)[C@]2(C)O (stereo not given in full)	-8.9
CCc1ccccc1NC(=O)CN1CCN(C(=O)C2CCN(C(=O)/C=C/c3ccccc3)CC2)CC1	-7.3
NS(=O)(=O)c1ccc(NC(=O)COC(=O)CN2C(=O)C3CC=CCC3C2=O)cc1 (stereo not given)	-4.6
CN(Cc1nc2ccccc2c(=O)[nH]1)C(=O)c1cccc(S(=O)(=O)N2CCCCCC2)c1	-0.7
CCOC(=O)c1c(NC(=O)COC(=O)Cc2n[nH]c(=O)c3ccccc23)sc(C(=O)NC)c1C	-8.0
COC(=O)[C@]1(Cc2ccccc2)N[C@H](CN(C)C(=O)c2ccc(C)cc2)[C@@H]2C(=O)N(Cc3ccccc3)C(=O)[C@@H]21	-2.4
CCC(C)(C)C1CCc2[nH]nc(C(=O)NCc3ccc(Cl)cc3)c2C1 (stereo not given)	-9.2
O=C(COC(=O)/C=C/c1ccc([N+](=O)[O-])cc1)NC1CCCCC1	0.1
O=C(C[C@@H]1C/C=C\C[C@@H](NC(=O)OCC2c3ccccc3-c3ccccc32)C(=O)OC[C@@H](Cc2ccccc2)NC1=O)NCCO	5.2
OC(COc1ccc(Br)cc1)CN1CCN(c2ccccc2)CC1 (stereo not given)	2.0
Cc1ccc(NC(=O)c2nc[nH]c2C(=O)N(C)Cc2ccccc2)cc1	79.3
Cc1nc2nc(SCC(=O)NCCCN3CCCC3)nn2c(C)c1Cc1ccccc1Cl	-6.1
O=C(CNC(=O)c1ccc(Cl)cc1Cl)OCc1cn2cc(Br)ccc2n1	6.0
CC1CN(C(=O)COC(=O)Cc2ccc(Cl)cc2)CC(C)O1 (stereo not given)	-3.3
Cc1ccc(NC(=O)CN(C)C(=O)c2cccc(S(=O)(=O)NCc3ccco3)c2)cc1	-5.6
COc1ccc(CN(C)CC(=O)Nc2ccccc2C(=O)NC2CC2)cc1OC	-1.7
CCCCC(CC)COC(=O)c1ccc(N(C)C)cc1 (stereo not given)	56.3
CCc1noc(C)c1C(=O)NNC(=O)c1ccccc1	-4.5
Cc1cc(C(=O)COC(=O)c2ccc(F)cc2)c(C)n1C	3.7
CC(C)C(C)NC(=O)COn1nnc2ccc(S(=O)(=O)N3CCOCC3)cc21 (stereo not given)	-8.5
CCCOc1ccccc1OCC(=O)N1CCN(S(=O)(=O)c2ccc(Cl)cc2)CC1	-7.0
C=CC(C)(O)CCCC(C)CCCC(C)CCCC(C)C (stereo not given)	0.3
O=S(=O)(NCc1ccc(F)cc1)c1ccc(Br)cc1Br	11.3
Cc1ccc(S(=O)(=O)NCC(=O)NNC(=O)c2ccc(Br)cc2)cc1C	-7.4
CC1CN(S(=O)(=O)c2cccc(C(=O)NCc3ccccn3)c2)CC(C)O1 (stereo not given)	-6.7
CSc1ccc(CCCCCCOC(=O)C(C)(C)C)cc1	-8.2
COc1ccc2c(c1)OC[C@H]1[C@H]2N2C(=O)c3cc(Br)ccc3NC(=O)[C@@]2(C)[C@H]1c1ccccc1	99.0
CN(CC(=O)NC(=O)NC1CCCCC1)CC(=O)Nc1ccc(Cl)cc1	-2.5
CCC1(CC)NC(=O)N(CC(=O)Nc2ccc(C)cc2C)C1=O	-3.6
CCCCn1c(SCC(=O)N2CCCC2=O)nc2cc(S(N)(=O)=O)ccc21	-4.0
CCc1cccc2c(C(=O)CN3C(=O)NC4(CCCCCC4)C3=O)c[nH]c12	-9.8
CC1(C)CC2CC(C)(CN2C(=O)COC(=O)c2ccc(NC(=O)CC#N)cc2)C1 (stereo not given)	6.1
COc1ccccc1NC(=O)c1cc2c(cc1Cl)N1CCCCCC1=NS2(=O)=O	0.3
O=C1CCC(=O)O1	-3.4
COc1ccc2sc(-c3ccccc3OC)c(C#Cc3cncn3C)c2c1	95.0
CCC(=O)c1cn(CC(=O)Nc2ccc(OC)cc2)c2ccccc12	-13.6
CCOc1ccccc1C(=O)OCC(=O)NCc1ccc2c(c1)OCO2	-2.9
CCOc1ccccc1N1CCN(C(=O)C2CSC3(C)CCC(=O)N23)CC1 (stereo not given)	-2.0
CC[C@@]1(C(=O)OC)N[C@H](CN(C)C(=O)Nc2ccc(F)cc2)[C@@H]2C(=O)N(Cc3ccccc3)C(=O)[C@@H]21	2.1
O=C1C=C(c2ccc(-c3ccccc3)c(F)c2)C[C@@H](c2ccc(F)cc2)C1	-6.9
O=S(=O)(Nc1nccs1)c1ccc(NS(=O)(=O)c2c(F)cc(F)c(Cl)c2F)cc1	1.0
CCC(=O)N1CCC(NC(=O)Nc2ccc(OC(F)(F)F)cc2)CC1	-9.2
O=C1CCC(C(=O)OCC(=O)Nc2ccc(Cl)cc2C(F)(F)F)=NN1	-2.9
COC(=O)c1ccc(NC(=O)CN2C(=O)NC3(CCC(C)CC3)C2=O)cc1 (stereo not given)	-0.7
COc1cc(NC(=O)COC(=O)Cc2ccsc2)cc(OC)c1	38.1
C[C@@H]1COC(=O)[C@H](CC(=O)OC(C)(C)C)C/C=C\C[C@@H](CC(=O)NCCO)C(=O)N1	-9.9
CCOc1ccc(N2CC(C(=O)Nc3ccc(S(=O)(=O)NCC4CCCO4)cc3)CC2=O)cc1 (stereo not given)	3.1
Cc1cccc(NC(=O)CSc2cccc3cccnc23)c1C	2.2
Cc1ccc(S(=O)(=O)N2CC(=O)N3CCN(CCN)C3C2)cc1 (stereo not given)	-5.3
COc1ccccc1OCC(=O)Nc1ncc(C)s1	3.6
Cc1ccc(C(=O)OCC(=O)Nc2ccc(F)c(Cl)c2)o1	1.5
COc1ccc(CN(C)Cc2c(O)ccc3cc(Br)ccc23)cc1OC	29.5
O=C(O)CN1C(=O)N/C(=C\c2cccn2-c2ccc(P(=O)(O)O)cc2)C1=O	10.6
O=C(Nc1cc(S(=O)(=O)N2CCOCC2)ccc1N1CCOCC1)c1ccc([N+](=O)[O-])s1	1.2
COC(=O)c1ccc2c(C)c(C3(O)CCCCC3)[nH]c2c1	-1.3
CCOc1cc(/C=C/C(=O)OCC(=O)NCCN2C(=O)CSC2=O)ccc1OCC(C)C	-4.4
O=C1CN(C(=O)COC(=O)CCC(=O)c2ccc(Cl)cc2)c2ccccc2N1	1.2
O=C(COC(=O)/C=C/c1ccco1)NC1CCCCC1	4.8
O=C(c1cccc(F)c1)N1CCN(Cc2ccc3c(c2)OCO3)CC1	1.5
More records follow.
SMILES	Mtb bLac sens
CCCCn1c(N)c(N(C)C(=O)C2CC(=O)N(Cc3ccco3)C2)c(=O)[nH]c1=O (stereo not given)	-4.0
O=C(COC(=O)COc1ccccc1F)Nc1ccc2c(c1)OCO2	2.9
Cc1cc(NC(=O)COC(=O)CCS(=O)(=O)c2ccc(Cl)cc2)no1	2.0
Cn1nnnc1Sc1ncnc2scc(-c3cccs3)c12	92.6
O=C1C=C(c2cc3ccccc3s2)C[C@@H](c2ccc(Cl)cc2)C1	-7.0
CCOC(=O)[C@H]1[C@H]2COc3ccc(Br)cc3[C@@H]2N2C(=O)N(c3ccc(F)cc3)C(=O)[C@@]12C	7.1
COc1ccc(/C=C/C(=O)N2CCN(S(=O)(=O)c3ccccc3Br)CC2)cc1OC	-9.8
CC1(C)O[C@@H]2[C@H](O1)[C@@H](CO)O[C@H]2n1c(N2CCCCC2)nc2c(N)ncnc21	-1.8
C=CC[C@@H](CC(=O)N[C@@H](CO)Cc1ccccc1)C(=O)N[C@@H](COC(=O)[C@@H](CC=C)Cc1ccc(F)cc1)Cc1ccccc1	-1.8
Fc1ccc(-c2csc(Nc3ccccn3)n2)cc1	47.2
COc1ccc(N(C(=O)c2ccncc2)S(=O)(=O)c2ccc(F)cc2)cc1	?
COC(=O)C1=C(c2c(C)noc2C)C[C@@H]2CC[C@H]1N2C(=O)N1CCCCC1	3.1

Another view of some results above.
mol | Mtb bLac sens
CCOC(=O)[C@H]1[C@H]2COc3ccc(Br)cc3[C@@H]2N2C(=O)N(c3ccc(F)cc3)C(=O)[C@@]12C | 7.1
COc1ccc(/C=C/C(=O)N2CCN(S(=O)(=O)c3ccccc3Br)CC2)cc1OC | -9.8

Some of the entries above, reformatted.
Structure | Mtb bLac sens
Cn1nnnc1Sc1ncnc2scc(-c3cccs3)c12 | 92.6
CC1(C)O[C@@H]2[C@H](O1)[C@@H](CO)O[C@H]2n1c(N2CCCCC2)nc2c(N)ncnc21 | -1.8
O=C(COC(=O)COc1ccccc1F)Nc1ccc2c(c1)OCO2 | 2.9
COC(=O)C1=C(c2c(C)noc2C)C[C@@H]2CC[C@H]1N2C(=O)N1CCCCC1 | 3.1
Fc1ccc(-c2csc(Nc3ccccn3)n2)cc1 | 47.2

Carrying on.
SMILES	Mtb bLac sens
CCOC(=O)CCCCCC(=O)Nc1ccc2c(c1)C(=O)N([C@H](C)CO)C[C@H](C)[C@@H](CN(C)C(=O)Nc1ccc(OC)cc1)O2	-8.1
COC(=O)c1c(C)[nH]c(C(=O)COc2ccc3ccc(=O)oc3c2)c1C	1.6
COc1ccc(NS(=O)(=O)c2c(F)cccc2F)cc1S(=O)(=O)N1CCOCC1	-4.8
COC(=O)C1CCN(C(=O)c2cc(-c3ccco3)nc3ccccc23)CC1	5.7
C[C@@H](CN1CCC[C@H]1CN1C(N)=NC[C@@H]1Cc1ccccc1)N1C[C@@H](Cc2ccccc2)N(CCCC2CCCC2)C1=N	100.0
O=C(O)c1cccc2c1C(=O)c1ccc(Cl)cc1S2(=O)=O	-11.1
O=C(Nc1ccc(Br)cc1)C1CC(c2c(F)cccc2Cl)=NO1 (stereo not given)	3.0
CCCN1CCC[C@H](c2cccc(O)c2)C1	-3.3
CN1CCN(S(=O)(=O)c2ccc(NN)nc2)CC1	0.2
Cc1c(NC(=O)c2ccc(Cl)c([N+](=O)[O-])c2)cccc1-n1cnnn1	69.2
Cc1nc(NCCc2ccc(O)cc2)c2nnn(Cc3ccccc3)c2n1	-16.5
O=C(CC1C[C@H](C(=O)N2CCOCC2)[C@@]2(CCC3CCCC3)c3[nH]c4ccccc4c3CCN2C1=O)NCCc1ccccn1 (stereo not given in full)	5.7
CN(C)C(CNC(=O)CSc1nc2sc3c(c2c(=O)n1C)CCCC3)c1ccccc1 (stereo not given)	4.5
CCN(CC(=O)Nc1ccc(NC(C)=O)cc1)C(=O)c1cc2c(s1)CCCC2	-6.5
O=C(COC(=O)c1ccc(Br)o1)Nc1ncc([N+](=O)[O-])s1	6.3
CCNC(=O)COc1ccc(/C=C2\COc3ccccc3C2=O)cc1OC	98.3
CSc1ccc(S(=O)(=O)NCC(=O)OCCOc2ccccc2)cc1[N+](=O)[O-]	0.5
O=C(Cc1ccc(S(=O)(=O)N2CCCC2)s1)Nc1cccc([N+](=O)[O-])c1	-11.1
COc1ccc(NC(C)=O)cc1S(=O)(=O)N1CC=C(c2ccccc2)CC1	6.3
COC(=O)C1=C(c2ccc(OC)c(OC)c2)C[C@@H]2CC[C@H]1N2C(=O)N1CCCCC1	-2.5
CN(Cc1ccc(Cl)c(Cl)c1)C(=O)c1cccc(S(=O)(=O)N2CCN(Cc3ccccc3)CC2)c1	-2.4
COc1ccc(CNC(=O)c2ccc(N3CCC4(CC3)CC(c3ccc(Cl)cc3)=NO4)c(NC(=O)Cc3ccc(F)cc3)c2)cc1	-0.1
CC(C)CCC1(C)NC(=O)N(CC(=O)Nc2ccc3c(c2)OCCO3)C1=O (stereo not given)	-10.7
Cc1cc(Cl)ccc1NC(=O)COC(=O)CCNS(=O)(=O)c1ccccc1	6.3

4 entries from above, as labelled records:
COC(=O)C1=C(c2ccc(OC)c(OC)c2)C[C@@H]2CC[C@H]1N2C(=O)N1CCCCC1
  Mtb bLac sens: -2.5

CN(Cc1ccc(Cl)c(Cl)c1)C(=O)c1cccc(S(=O)(=O)N2CCN(Cc3ccccc3)CC2)c1
  Mtb bLac sens: -2.4

COc1ccc(CNC(=O)c2ccc(N3CCC4(CC3)CC(c3ccc(Cl)cc3)=NO4)c(NC(=O)Cc3ccc(F)cc3)c2)cc1
  Mtb bLac sens: -0.1

CC(C)CCC1(C)NC(=O)N(CC(=O)Nc2ccc3c(c2)OCCO3)C1=O (stereo not given)
  Mtb bLac sens: -10.7

The listing continues:
SMILES	Mtb bLac sens
Cc1ccc(S(=O)(=O)N(C)CC(=O)NNC(=O)Cc2ccccc2F)cc1	-4.2
CC(C)(C)OC(=O)N1CCC(NC(=O)c2[nH]cnc2C(=O)Nc2ccon2)CC1	-3.2
N#Cc1c(-c2ccccc2)nc(SCc2ccc([N+](=O)[O-])cc2)[nH]c1=O	-9.8
O=C(Cn1nc(C(=O)O)c2ccccc2c1=O)Nc1cccc(S(=O)(=O)N2CCOCC2)c1	-2.1
O=C1CCC/C=C\C[C@@H](CC(=O)N(CCO)Cc2ccccc2)C(=O)NCCO1	4.7
CCc1nc2ccccc2c(C(=O)OCC(=O)NC2CC2)c1C	0.4
Cn1c(SCC(=O)NCc2ccco2)nnc1C1CC1	4.2
CC(C)(C)OC(=O)NCCCCCNC(=O)c1nc[nH]c1C(=O)NCc1ccccc1	-1.8
CN(C(=O)c1ccccc1C(=O)OCC(=O)Nc1ccc(OC(F)F)cc1)c1ccccc1	-10.9
COc1ccc(-c2sc3ccc(N4CCOCC4)cc3c2C#CC2(O)CCCCC2)cc1	-2.0
CC(=O)c1cccc(NC(=O)CCCSc2ccccc2)c1	1.6
CSc1ccccc1NC(=O)CN(C)C(=O)c1c(C)nn(Cc2ccccc2)c1C	-0.8
CC(=O)c1cc(Cl)ccc1OCC(=O)Nc1cccc(S(=O)(=O)N2CCCC2)c1	-3.5
COc1ccc(-c2sc3ccc(N4CCOCC4)cc3c2C#CC(C)(C)O)cc1	3.0
COc1cc(/C=C/C(=O)OCC(=O)NCCCc2ccccc2)cc(OC)c1OC	-0.2
C[C@H](CO)N1C[C@H](C)[C@@H](CN(C)Cc2ccc(Cl)c(Cl)c2)Oc2c(NC(=O)CCC(F)(F)F)cccc2C1=O	2.9
O=C(NCc1ccncc1)c1cccc(S(=O)(=O)N2CCc3ccccc32)c1	5.3
Cc1ccn2cc(CCNS(=O)(=O)c3ccc([N+](=O)[O-])cc3)nc2c1	-6.6

Source: PubChem (Southern Research Specialized Biocontainment Screening Center)

These rows are one share of the data; rates above refer to the full screens.
